Compound activity from PubChem.
Vaccinia stage: blocks a specific stage of Vaccinia orthopoxvirus infection, primary screen, cell-based, single point | Vaccinia-infected cells, mCherry/Venus stage reporter fluorescence; active compounds read low; some inactives read as strong as hits | activity change (mCherry), % (concentration not given with the values) | 89,000 tested, 0.01% active;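 active = mCherry past -33% and 40 or more points under the early reporter, replicates agreeing; inconclusive = past -33% without that gap or agreement; tested in A549 cells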;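 also: scaled between vehicle wells and reference inhibitor wells; 23 nL library stock went into each well; one replicate is shown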
Vaccinia stage Venus: second read-out of Vaccinia stage, no call of its own (marks repeat the call); activity change (Venus), %; measured here: Venus reporter, other viral stage;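 negative = less Venus signal; first of two replicates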
Starred values were filed as active, the others as inactive; ? = inconclusive; . = no result given; & = joins results of further samples.

SMILES | Vaccinia stage | Vaccinia stage Venus
C[C@H](CO)N1C[C@H](C)[C@H](CN(C)Cc2ccccc2)OCc2ccccc2-c2c(n(C)c3ccccc23)C1=O | -29 | -17
COC(=O)[C@H]1[C@H](CO)[C@H]2Cn3c(cccc3=O)[C@H]2N1C(=O)C1CCC1 | 23 | 13
C[C@@H]1CN([C@@H](C)CO)S(=O)(=O)c2ccc(/C=C/c3ccccc3)cc2O[C@H]1CN(C)C(=O)Nc1ccc(F)cc1 | ? | .
C[C@@H]1CN([C@@H](C)CO)C(=O)c2cc(NC(=O)NC3CCCCC3)ccc2O[C@H]1CN(C)C | 20 | 18
C[C@@H]1CN([C@@H](C)CO)C(=O)c2cc(C#Cc3cccc(F)c3)cnc2O[C@H]1CN(C)C(=O)c1ccccc1F | ? | .
Cc1ccc(S(=O)(=O)N(C)C[C@@H]2OCCCC[C@@H](C)Oc3ccc(NC(=O)NC(C)C)cc3C(=O)N([C@H](C)CO)C[C@@H]2C)cc1 | 16 | 12
CC(C)NC(=O)Nc1cccc2c1O[C@@H](CN(C)S(=O)(=O)c1ccc(F)cc1)[C@H](C)CN([C@H](C)CO)C2=O | 5 | 3
CN1[C@@H]2c3ccc(C4=CCCCC4)c(=O)n3C[C@H]1[C@H](CO)[C@H]2C(=O)NCc1cc(F)cc(F)c1 | -3 | -5
Cc1cccc(CN(C)C[C@@H]2OCc3cn(nn3)CCCC(=O)N([C@H](C)CO)C[C@@H]2C)c1 | 5 | 8
C/C=C/c1ccc([C@@H]2[C@@H](CO)N(C(=O)Cc3cccnc3)[C@H]2CNC(C)=O)cc1 | 3 | -1
Cc1ccc(S(=O)(=O)N(C)C[C@H]2Oc3cc(C#Cc4ccncc4)ccc3S(=O)(=O)N([C@@H](C)CO)C[C@@H]2C)cc1 | ? | .
CCCNC(=O)C[C@H]1CC[C@@H]2[C@@H](COc3ccc(NC(=O)c4ccccc4)cc3C(=O)N2C)O1 | -8 | -1
C[C@H](CO)N1C[C@H](C)[C@H](CN(C)Cc2ccc(Cl)c(Cl)c2)Oc2ccc(NS(=O)(=O)c3ccccc3)cc2C1=O | 18 | 4
C[C@H](CO)N1C[C@H](C)[C@H](CN(C)C(=O)CN(C)C)Oc2cc(C#CC(C)(C)O)ccc2S1(=O)=O | 73 | 24
C[C@H](CO)N1C[C@H](C)[C@H](CN(C)S(=O)(=O)c2cccs2)Oc2c(NC(=O)Nc3cccc4ccccc34)cccc2C1=O | -3 | -17
Cn1cnc(CCNC(=O)C[C@H]2CC[C@@H]3[C@H](COC[C@@H](O)CN3C(=O)Nc3ccc(F)cc3)O2)c1 | 9 | 13
CO[C@@H]1CC[C@H]2CCOc3ccc(C#N)cc3C(=O)N(C)C[C@@H](C)C(=O)N(C)C[C@H]1O2 | 6 | -5
C[C@H]1CN([C@@H](C)CO)C(=O)c2cc(C#CCN(C)C)cnc2O[C@H]1CN(C)Cc1cccc(F)c1 | -8 | 4
COc1ccc(NC(=O)Nc2ccc3c(c2)C(=O)N([C@H](C)CO)C[C@H](C)[C@H](CN(C)C(=O)NC2CCCCC2)OCCCC[C@H](C)O3)cc1 | -31 | -20
O=C(C1CCCC1)N1CC(=O)N2[C@H](CO)[C@@H](c3ccc(-c4cccnc4)cc3)[C@@H]2C1 | 9 | 8
C[C@@H]1CCCCO[C@H](CN(C)Cc2ccncc2)[C@@H](C)CN([C@@H](C)CO)C(=O)c2cc(NS(=O)(=O)c3cccs3)ccc2O1 | -3 | 6
C[C@@H](NC(=O)C[C@@H]1CC[C@@H](NC(=O)Cc2ccccn2)[C@H](CO)O1)c1ccccc1 | -4 | 1
CN(C)C(=O)C[C@@H]1CC[C@@H]2[C@H](COC[C@H](O)CN2Cc2ccc(C(F)(F)F)cc2)O1 | -7 | 1
O=C(C[C@@H]1CC[C@H]2[C@@H](COC[C@H](O)CN2Cc2cccc(Cl)c2)O1)NCc1cccc(F)c1 | -25 | -27
OC[C@@H]1[C@H](c2ccc(-c3ccccc3)cc2)[C@H]2CN(Cc3cncnc3)CCCCN12 | 5 | -6
SMILES | Vaccinia stage | Vaccinia stage Venus
O=C(C[C@H]1CC[C@H]2[C@@H](COC[C@@H](O)CN2C(=O)Nc2ccc(Cl)c(Cl)c2)O1)NCc1ccccc1 | -27 | -22
C[C@@H]1CCCCO[C@H](CN(C)C(=O)Nc2ccc(C(F)(F)F)cc2)[C@H](C)CN([C@@H](C)CO)C(=O)c2cc(NC(=O)NC3CCCCC3)ccc2O1 | 5 | 8
Cc1ccc(S(=O)(=O)N(C)C[C@H]2Oc3ccc(NC(=O)Nc4ccc(F)cc4)cc3C(=O)N([C@H](C)CO)C[C@@H]2C)cc1 | -16 | -7
COc1ccc(CNC(=O)C[C@@H]2C=C[C@@H](NC(=O)c3ccc4c(c3)OCO4)[C@@H](CO)O2)cc1 | -14 | -8
Cc1ccc(-c2cnc3c(c2)C(=O)N([C@H](C)CO)C[C@@H](C)[C@@H](CN(C)C(=O)c2cccc(F)c2)O3)cc1 | -14 | -9
N#C[C@H]1[C@H](c2ccc(C#CC3CCCCC3)cc2)[C@@H](CO)N1C(=O)c1cccc(F)c1 | 3 | 5
CC(C)NC(=O)N(C)C[C@H]1OCCCC[C@H](C)Oc2ccc(NC(=O)C3CCCCC3)cc2C(=O)N([C@@H](C)CO)C[C@@H]1C | -13 | -13
COc1ccc(NC(=O)Nc2ccc3c(c2)C(=O)N([C@H](C)CO)C[C@H](C)[C@@H](CN(C)C(=O)Nc2ccc4c(c2)OCO4)OCCCC[C@H](C)O3)cc1 | 17 | 10
CC(C)NC(=O)Nc1ccc2c(c1)C(=O)N([C@@H](C)CO)C[C@@H](C)[C@@H](CN(C)S(=O)(=O)c1cccs1)OCCCC[C@H](C)O2 | 19 | 24
COc1ccc(S(=O)(=O)Nc2ccc3c(c2)C(=O)N([C@H](C)CO)C[C@H](C)[C@@H](CN(C)C(=O)Cc2ccccc2)OCCCC[C@@H](C)O3)cc1 | 21 | 5
C[C@@H]1CCCCO[C@H](CN(C)C(=O)Cc2ccccc2)[C@H](C)CN([C@@H](C)CO)C(=O)c2cc(NS(=O)(=O)c3cn(C)cn3)ccc2O1 | 17 | 7
CN(C)CC(=O)N[C@H]1CC[C@H](CCNC(=O)C2CCCC2)O[C@@H]1CO | -14 | 1
O=C(C[C@@H]1C[C@@H]2c3cc(NS(=O)(=O)c4ccccc4)ccc3O[C@@H]2[C@@H](CO)O1)NCC1CC1 | 17 | 8
C[C@H]1CN([C@@H](C)CO)C(=O)c2ccccc2-c2ccccc2CO[C@H]1CN(C)S(=O)(=O)c1cn(C)cn1 | 19 | -3
CCC(=O)N1[C@@H]2Cn3c(ccc(-c4ccncc4)c3=O)[C@H]1[C@@H](C(=O)NC1Cc3ccccc3C1)[C@@H]2CO | 10 | 7
Cc1ccc(S(=O)(=O)N(C)C[C@H]2Oc3ccc(NC(=O)CCN4CCOCC4)cc3C(=O)N([C@H](C)CO)C[C@H]2C)cc1 | -3 | -4
C[C@@H]1CN([C@@H](C)CO)C(=O)c2cc(NS(=O)(=O)c3ccccc3)ccc2O[C@@H](C)CCCCO[C@@H]1CN(C)Cc1ccc2c(c1)OCO2 | ? | .
Cc1cccc(-c2ccc([C@@H]3[C@@H](CO)N4C(=O)CN(C(=O)c5cccnc5)C[C@H]34)cc2)c1 | -14 | -13
COc1ccc(CN(C)C[C@@H]2Oc3ccc(NS(=O)(=O)c4cn(C)cn4)cc3C(=O)N([C@H](C)CO)C[C@@H]2C)cc1 | 9 | 2
O=C(NCC[C@H]1CC[C@H](NS(=O)(=O)c2cccc(F)c2)[C@H](CO)O1)C1CCCCC1 | -3 | -2
CC(=O)N(C)C[C@H]1Oc2cc(Br)ccc2S(=O)(=O)N([C@H](C)CO)C[C@@H]1C | 26&12 | 9&7
O=S(=O)(c1ccc(-c2ccccc2)cc1)N1CCN(Cc2ccc(OCCO)cc2)CC1 | -19 | -15
C[C@@H]1CCCCO[C@@H](CN(C)Cc2ccc(C(F)(F)F)cc2)[C@@H](C)CN([C@H](C)CO)C(=O)c2cc(NC(=O)c3ccccc3)ccc2O1 | ? | .
C[C@H]1CN([C@@H](C)CO)C(=O)c2cc(NS(=O)(=O)c3ccc(F)cc3)ccc2O[C@@H]1CN(C)Cc1ccc(C(=O)Nc2ccccc2N)cc1 | 19 | 9
O=C1[C@@H]2[C@@H](CC(COc3ccccc3)=C([C@H](O)c3ccccc3)[C@@H]2CO)C(=O)N1Cc1ccccc1 | ? | .
SMILES | Vaccinia stage | Vaccinia stage Venus
C[C@H](CO)N1C[C@H](C)[C@@H](CN(C)C(=O)Nc2ccc3c(c2)OCO3)Oc2c(NS(=O)(=O)c3cccs3)cccc2C1=O | -4 | -4
COc1ccc(CN(C)C[C@H]2Oc3c(NS(=O)(=O)c4cccs4)cccc3C(=O)N([C@H](C)CO)C[C@H]2C)cc1 | 15 | 3
C[C@H](CO)N1C[C@H](C)[C@@H](CN(C)C(=O)NC2CCCCC2)Oc2c(NS(=O)(=O)c3cn(C)cn3)cccc2C1=O | 8 | 0
CCN1[C@@H]2c3ccc(-c4cccnc4)c(=O)n3C[C@@H]2[C@@H](CO)[C@@H]1C(=O)NCCc1cn(C)cn1 | 6 | 18
C[C@H](CO)N1C[C@H](C)[C@H](CN(C)C(=O)c2ccccc2)Oc2cc(-c3cccc(C#N)c3)ccc2S1(=O)=O | -5 | -11
C[C@@H]1CN([C@H](C)CO)C(=O)c2cc(NS(=O)(=O)c3ccc(Cl)cc3)ccc2O[C@@H]1CN(C)S(=O)(=O)c1ccc(F)cc1 | -22 | -17
CCCN1[C@@H]2c3ccc(-c4cccnc4)c(=O)n3C[C@@H]2[C@@H](CO)[C@@H]1C(=O)NC1CCC1 | -1 | 5
C[C@H]1CN([C@@H](C)CO)S(=O)(=O)c2ccc(C3=CCCCC3)cc2O[C@H]1CN(C)C(=O)Cc1cccnc1 | -2 | -6
COc1ccc(S(=O)(=O)N(C)C[C@H]2Oc3cc(C#CC4CCCC4)ccc3S(=O)(=O)N([C@H](C)CO)C[C@@H]2C)cc1 | ? | .
N#C[C@H]1[C@@H](c2ccc(-c3ccccc3F)cc2)[C@@H](CO)N1C(=O)C1CC1 | 8 | 3
O=C(C[C@H]1CC[C@H](NC(=O)c2ccncc2)[C@H](CO)O1)NCc1ccncn1 | 29 | 15
C[C@H]1CN([C@@H](C)CO)C(=O)c2cc(NC(=O)Nc3ccccc3)ccc2O[C@H]1CN(C)C(=O)NC1CCCCC1 | 12 | 10
O=C(C[C@H]1CC[C@@H]2[C@H](COC[C@@H](O)CN2Cc2nccs2)O1)NCc1ccccc1F | -1 | 3
Cc1noc(C)c1NC(=O)Nc1ccc2c(c1)CC(=O)N([C@H](C)CO)C[C@H](C)[C@@H](CN(C)C(=O)Nc1ccc(C(F)(F)F)cc1)O2 | 10 | 9
C[C@H](CO)N1C[C@H](C)[C@H](CN(C)CC2CC2)Oc2ccc(NS(=O)(=O)c3ccc(Cl)cc3)cc2C1=O | 2 | -6
C[C@H]1CN([C@@H](C)CO)C(=O)Cc2cc(NC(=O)CCN3CCOCC3)ccc2O[C@H]1CN(C)Cc1ccc(Oc2ccccc2)cc1 | -9 | -12
COc1ccc2c3c(n(C)c2c1)[C@@H](CO)N(C(=O)Nc1ccc(F)cc1)CC31CN(C(=O)CN2CCOCC2)C1 | 14 | 17
COc1ccccc1-c1ccc([C@H]2[C@@H](CO)N3CCCCN(C(=O)c4cccnc4)C[C@H]23)cc1 | 13 | 4
C[C@H]1CN([C@@H](C)CO)C(=O)Cc2cc(NS(=O)(=O)c3cccs3)ccc2O[C@@H]1CN(C)S(=O)(=O)c1ccccc1 | 7 | 5
Cc1ccc(S(=O)(=O)N[C@@H]2CC[C@@H](CCNC(=O)C3CCC3)O[C@@H]2CO)cc1 | 0 | 2
CC(C)C#Cc1ccc([C@H]2[C@@H](C#N)N(C(=O)CN(C)C)[C@@H]2CO)cc1 | -11 | -7
CC(C)C#Cc1ccc2c(c1)O[C@@H](CN(C)C(=O)c1ccncc1)[C@@H](C)CN([C@@H](C)CO)S2(=O)=O | 1 | -3
O=C(C[C@H]1CC[C@H](NC(=O)CN2CCOCC2)[C@H](CO)O1)NCc1cccc(F)c1 | -2 | 5
COc1ccc(S(=O)(=O)N(C)C[C@H]2Oc3ccc(NC(=O)Cc4cn(C)c5ccccc45)cc3CC(=O)N([C@@H](C)CO)C[C@H]2C)cc1 | -3 | -11

Profiles from above:
`CCCN1[C@@H]2c3ccc(-c4cccnc4)c(=O)n3C[C@@H]2[C@@H](CO)[C@@H]1C(=O)NC1CCC1` across the screens: Vaccinia stage: -1; Vaccinia stage Venus: 5
`COc1ccc(S(=O)(=O)N(C)C[C@H]2Oc3cc(C#CC4CCCC4)ccc3S(=O)(=O)N([C@H](C)CO)C[C@@H]2C)cc1` across the screens: Vaccinia stage: ?; Vaccinia stage Venus: .

A second format for some results above.
SMILES,Vaccinia stage,Vaccinia stage Venus
COc1ccc(CN(C)C[C@@H]2Oc3ccc(NS(=O)(=O)c4cn(C)cn4)cc3C(=O)N([C@H](C)CO)C[C@@H]2C)cc1,9,2
OC[C@@H]1[C@H](c2ccc(-c3ccccc3)cc2)[C@H]2CN(Cc3cncnc3)CCCCN12,5,-6
CCN1[C@@H]2c3ccc(-c4cccnc4)c(=O)n3C[C@@H]2[C@@H](CO)[C@@H]1C(=O)NCCc1cn(C)cn1,6,18
Cc1ccc(S(=O)(=O)N(C)C[C@@H]2OCCCC[C@@H](C)Oc3ccc(NC(=O)NC(C)C)cc3C(=O)N([C@H](C)CO)C[C@@H]2C)cc1,16,12

This is a subset; rates above refer to the full screens.
